ClpP mod = qHTS Assay for Activators of ClpP. purified B. subtilis ClpP, FRET peptide cleavage, 20 min. Potency, µM (highest dose often 57.5 µM), for the others: at the top dose activity change, negative = active. 340,000 tested, 1.9% active. AID 651965, 2013; active = well fitted falling curve with a large enough effect; inconclusive = small, poorly fitted or top-dose-only effect; inactive = no such curve, though single readings can be large or run the other way; also: potency is read from the fitted curve at half-maximal effect; the source files actives as falling curves though it sought activators and does not explain the sign; nearly all actives have a fitted effect of over 65% in size; many hits overshoot -100%
Target sequence (P80244 whole entry, looked up): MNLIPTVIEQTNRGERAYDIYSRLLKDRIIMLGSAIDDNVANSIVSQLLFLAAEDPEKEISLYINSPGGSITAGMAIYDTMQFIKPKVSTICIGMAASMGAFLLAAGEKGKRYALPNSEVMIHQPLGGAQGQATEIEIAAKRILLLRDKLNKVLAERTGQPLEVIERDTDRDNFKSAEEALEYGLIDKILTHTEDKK
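Buffer: 100 mM Tris/HCl pH8, 100 mM KCl, 0.05% low protease BSA, 2.5% glycerol, 0.01% Tween-20. ClpP 10 microg/mL final; 20 min RT; delta FRET normalized to ADEP and DMSO controls.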
gsp agonist = activates gsp, the McCune-Albright syndrome mutation. gsp mutant cells, cAMP HTRF, 30 min; control for the full effect not named in the record. Potency, µM (highest dose often 76.9 µM), without a hit: at the top dose activation (cAMP increase), actives largely listed as activators. 340,000 tested, 0.13% active. AID 624287; active = well fitted activation curve with a large enough effect; inconclusive = small, poorly fitted or top-dose-only effect, or another doubt; inactive = no such curve, though single readings can be large or run the other way; cell line not stated here;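 also: phosphodiesterase inhibitor Ro 20-1724 added with compounds to block cAMP breakdown; potency is read from the fitted curve at half-maximal effect; nearly all actives have a fitted effect of over 60% in size; about a fifth of the inactives were tested at one dose only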
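Cells in DMEM/10% FBS with G418 were pretreated with compounds in DMSO plus […] (300 uM stock) for 30 min at 37C. cAMP was measured by HTRF (cAMP-d2 plus anti-cAMP antibody-K) after 30 min at room temperature.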
TRPV1 potentiator = enhances activation of the human vanilloid receptor TRPV1; 320,000 tested, 0.02% active; TRPV1-expressing cells, Fluo-8 calcium influx, capsaicin EC20 potentiation; host cell line not named in the record; control for the full effect not named in the record; Q8NER1; potentiation, % at 8.33 µM; active means potentiation above 80%; inconclusive means 30% to 80%; inactive means below 30%; also: 0% is about no effect
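Fluo-8 calcium influx in TRPV1-expressing cells, kinetic read (ex 480/em 520 nm). Compound added and read 3 min for agonist activity, followed by capsaicin at EC20 final and 2 min further read for enhancement.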
Menin MLL FP FL = displaces fluorescein MLL peptide from human menin | AID 1766 | FP activity change, % at 61.4 µM | Fluorescence polarization, fluorescein-MLL peptide displacement from menin | 290,000 tested, under 10 active; inconclusive = falling polarisation curve, or a change in total fluorescence; inactive = total fluorescence flat and polarisation flat or rising; no compound was filed as active; the % refers to the polarisation; negative = inhibition;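 also: % of control where 0% means no effect; inhibitors lower the polarisation; unlabelled MLL peptide was the positive control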
gsp antag = gsp mutant antagonism | gsp-mutant cells, cAMP HTRF, 30 min; control for the full effect not named in the record | AID 624288 | Potency, µM (titrated, usually from 76.9 µM), without a hit: at the top dose activity change, negative = inhibition, usual class: inhibitors | 340,000 tested, 0.4% active; active = falling curve of any shape with a large fitted effect; inconclusive = falling curve, mostly with a smaller effect; inactive = flat or rising curve; cell line not stated here;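 also: intracellular cAMP measured with PDE inhibitor Ro 20-1724 present during compound exposure; potency is read from the fitted curve at half-maximal effect; % is scaled to controls: 0 for no effect and ±100 for the full control effect; nearly all actives have a fitted effect of over 65% in size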
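HTRF cAMP read-out (cAMP-d2 plus anti-cAMP antibody-K in lysis buffer, 30 min RT). Before lysis, cells are exposed to compounds with […] for 30 min at 37C in DPBS containing Ca/Mg, BSA and Tween 20.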
Sfp PPTase inh = Sfp phosphopantetheinyl transferase inhibition. AID 1490. Biochemical Sfp PPTase activity, qHTS. Potency, µM, for inactives: max response, negative = inhibition, most hits filed as inhibitors. 310,000 tested, 3.5% active; active = well fitted inhibition curve with a large enough effect; inconclusive = small, poorly fitted or top-dose-only effect, or another doubt; inactive = no such curve, though single readings can be large or run the other way;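 also: the enzyme is Sfp with the accession as filed and its product quenches rhodamine fluorescence; potency is read from the fitted curve at half-maximal effect; 0% = enzyme reaction without inhibitor and -100% = no enzyme wells; top concentration of the series not given in the record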
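With Hepes-Na pH 7.6 buffer containing 10 mM MgCl2, Sfp (15 nM) modified BHQ-2-YbbR (12.5 uM) using rhodamine-CoA (5 uM). Two reads 30 minutes apart at 525/598 nm yielded each well's rate.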
TRPML1 blocker = blocks the human TRPML1 channel. Q9GZU1. TRPML1-inducible cells, Ca2+ dye fluorescence, FDSS; stronger effect = lower value; inhibition of EC80 agonist-evoked calcium signal. activity change, negative = inhibition, % (concentration not given with the values). 390,000 tested, 0.02% active; in the data active means activity change below about -50%; inconclusive means about -30% to -50%; inactive means above about -30%;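 also: stimulus is agonist 54-4 at its EC80 concentration; % is scaled to controls: 0 for no effect and ±100 for the full control effect; compound concentration not given in the record; the text of the record puts the active cut at -80%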
Target sequence (Q9GZU1 whole entry, looked up): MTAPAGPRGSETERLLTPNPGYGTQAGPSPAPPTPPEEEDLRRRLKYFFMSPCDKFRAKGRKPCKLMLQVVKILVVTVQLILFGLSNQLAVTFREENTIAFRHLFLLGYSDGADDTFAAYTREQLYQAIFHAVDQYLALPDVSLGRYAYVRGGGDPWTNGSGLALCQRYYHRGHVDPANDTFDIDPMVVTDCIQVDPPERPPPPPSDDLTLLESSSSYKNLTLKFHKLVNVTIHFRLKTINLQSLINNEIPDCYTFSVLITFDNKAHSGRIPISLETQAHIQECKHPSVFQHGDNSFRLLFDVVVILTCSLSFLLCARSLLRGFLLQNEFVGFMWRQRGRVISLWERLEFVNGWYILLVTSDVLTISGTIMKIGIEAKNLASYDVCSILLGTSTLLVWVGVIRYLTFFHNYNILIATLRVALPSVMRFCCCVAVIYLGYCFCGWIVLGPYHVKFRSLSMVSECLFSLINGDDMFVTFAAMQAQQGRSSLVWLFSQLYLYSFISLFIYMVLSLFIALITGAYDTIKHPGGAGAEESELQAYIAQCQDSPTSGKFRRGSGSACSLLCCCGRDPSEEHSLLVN
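Tet-induced TRPML1-DL cells loaded with Ca8 no-wash calcium dye were read kinetically on FDSS. Compound addition was followed by EC80 agonist 54-4 (4 uM final); inhibition was read over 110 s.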
The depositor's hits bear a star; ? = inconclusive; · = no result given; [ ] = remark or other dose.

Values run as follows: ClpP mod	gsp agonist	TRPV1 potentiator	Menin MLL FP FL	gsp antag	Sfp PPTase inh	TRPML1 blocker
- Cc1noc(C)c1C(=O)OCC(=O)Nc1ncc(C(F)(F)F)cc1Cl
 : 1.0%	1%	·	·	1%	·	-15
- COC(=O)N1CCc2c(sc(NC(=O)C3COc4ccccc4O3)c2C(N)=O)C1 (stereo not drawn)
 : 2.4%	-5%[15.4 µM]	0	·	-25%	·	-15
- Cc1onc(-c2c(F)cccc2Cl)c1C(=O)OCC(=O)c1c[nH]c2ccccc12
 : ·	2%[15.4 µM]	4	2.6	-23%	10%	13
- CCOc1ccc(N=C2NC(=O)S/C2=C\c2ccc(Cl)cc2)cc1
 : -2.5%	-30%	3	-0.8	9%	5%	-7
- CN(CC(=O)Nc1ccc(F)c(F)c1F)C(=O)C1(c2ccccc2)CC1
 : 0.4%	-108%[inhibitor]	·	·	·	·	-5
- Cc1nn(C)c(Cl)c1C(=O)NCC(=O)Nc1ccc(C(C)C)cc1
 : -0.5%	?	2	-2.3	3%	11%	-4
- O=C(N/N=C/c1ccco1)c1ccc(NC(=O)c2ccc(Cl)cc2)cc1
 : ·	-24%	-2	3.7	7%	-4%	-6
- C=C(C)c1cccc(C(C)(C)NC(=O)Nc2cc(C)ccc2OC)c1
 : -1.2%	9%	-2	0.6	-28%	13%	-7
- CCN(C(=O)c1cc([N+](=O)[O-])ccc1NCc1cccnc1)c1ccccc1
 : ·	-45%	-6	-0.2	-1%	0%	21
- COC(=O)C1(C(F)(F)F)N=C2Sc3ccccc3N2C(N2CCOCC2)=N1 (stereo not drawn)
 : -0.5%	0%	15	0.5	5%	29%	14
- COc1ccc(-c2nn(-c3ccccc3)cc2/C=C/C(=O)NCCCn2ccnc2)cc1OC
 : -1.0%	21%[15.4 µM]	0	4.7	-12%	3%	-2
- COC1CCCN(C(=O)c2cccc(OC3CCN(S(=O)(=O)N(C)C)CC3)c2)C1 (stereo not drawn)
 : 0.6%	6%	7	-0.7	4%	12%	-22
- N=c1c2c3c(sc2ncn1CCN1CCOCC1)CCCC3
 : -2.1%	26%	7	0.3	5%	19%	-1
- COc1cccc(OC)c1C(=O)Nc1ccccc1Sc1ccccc1
 : 0.4%	-18%	·	·	-18%	·	12
- Cn1nc(C(=O)NNC(=O)c2cccc(Cl)c2)ccc1=O
 : -13%	11%	·	·	4%	·	1
- O=C(NNc1cccc(Cl)n1)Nc1ccc(Cl)cc1
 : -0.1%	1%	-2	0.1	11%	-1%	-3
- COCCNC(=O)C1CC(c2ccc(C(F)(F)F)cc2)=NO1 (stereo not drawn)
 : 0.7%	11%	·	·	8%	·	-12
- CCOc1ccc2nc(SCC(=O)Nc3ncccn3)[nH]c2c1
 : -1.5%	-31%[inhibitor]	-2	2.5	8%	17%	16
- CCC(C)c1ccc(NC(=O)C2=CC=CN3CCS(=O)(=O)N=C23)cc1 (stereo not drawn)
 : -3.7%	-39%[inhibitor]	-7	·	-9%	·	0
- O=C(Nc1ccc(Oc2ccccc2)cc1)c1cnc2n(c1=O)CCS2
 : 21%	3%	-1	-4.9	-12%	-17%	-9

Values run as follows: ClpP mod	gsp agonist	TRPV1 potentiator	Menin MLL FP FL	gsp antag	Sfp PPTase inh	TRPML1 blocker
- COc1ccc([C@H]2C[C@@H](O)[C@H](n3cc(COC(=O)c4ccccc4)nn3)CN2C(=O)C2CCCCC2)cc1
 : -0.5%	6%	·	·	·	·	-4
- O=C(NCc1ccc(F)cc1)c1cc2c(cc1Cl)N1CCCCCC1=NS2(=O)=O
 : -5.6%	3%	-5	·	1%	·	-2
- CCCCN(C(=O)c1cccc(S(=O)(=O)N(CC)c2ccccc2)c1)c1c(N)n(CCCC)c(=O)[nH]c1=O
 : -1.2%	34%	·	·	10%	·	-16
- O=C(c1cccc(S(=O)(=O)N2CCCC2)c1)c1cccc(S(=O)(=O)N2CCCC2)c1
 : -1.8%	0%	0	0.4	-9%	7%	8
- COc1ccc(C(=O)N2CCN(Cc3cc(OC)c(O)c(OC)c3)CC2)cc1OC
 : -1.6%	-2%	-7	5.1	2%	?	-2
- O=C(N/N=C/c1ccc(OCc2cnc(Cl)s2)cc1)c1ccncc1
 : -1.0%	-28%	-13	-6.5	-10%	9%	-7
- CCC(C)c1ccc(O)c(NC(=O)c2cncc(Br)c2)c1 (stereo not drawn)
 : -0.5%	-17%	-2	0.2	-32%	-6%	-18
- O=C(NCCN1CCOCC1)C1CCC(=O)N1C1CCCCC1 (stereo not drawn)
 : -0.7%	-1%	0	5.4	7%	-1%	14
- COc1ccc(NC(=O)c2cc(Br)ccc2Cl)c([N+](=O)[O-])c1
 : ·	14%[15.4 µM]	0	1.3	10%	10%	20
- Cn1c(=O)c2c(nc(CN3CCN(Cc4ccccc4)CC3)n2Cc2ccccc2)n(C)c1=O
 : ·	·	-3	1.5	·	12%	·
- COc1ccccc1N1CCN(C(CNC(=O)C2CCCCC2)c2cccnc2)CC1 (stereo not drawn)
 : -1.2%	?	-5	-1.7	12%	9%	-9
- CC#CC[N+](C)(C)CCCCCC
 : ·	-29%[15.4 µM]	1	0.0	4%	8%	19
- Cc1ccc(OC(C)C(=O)N2CCc3ccccc32)c([N+](=O)[O-])n1 (stereo not drawn)
 : -0.4%	-45%	·	·	·	·	-5
- COc1ccc(CNC(=O)C2CCN(S(=O)(=O)c3cccc4nsnc34)CC2)cc1
 : 2.5%	2%	-3	·	-18%	13%	4
- COC(=O)c1ccc(CN(C)S(=O)(=O)c2ccc(C)cc2)o1
 : 0.3%	13%	13	2.7	-12%	14%	-8
- CCCNC(=O)CSc1nnc(NC(=O)C2CC(=O)N(c3ccccc3OC)C2)s1 (stereo not drawn)
 : -1.5%	-65%[inhibitor]	·	·	·	·	16
- N#Cc1ccc(-c2ccc(OCC3CNC(=O)O3)cc2)cc1 (stereo not drawn)
 : 0.6%	12%[15.4 µM]	-8	?	1%	2%	-8
- CCc1ccc(N2CC(C(=O)Nc3ccc4c(c3)OCCO4)CC2=O)cc1 (stereo not drawn)
 : ·	-42%[inhibitor]	1	-4.0	-10%	26%	3
- CCCSC(=S)NC1CCS(=O)(=O)C1 (stereo not drawn)
 : 0.2%	-38%[inhibitor]	3	-2.9	0%	?	104
- O=C(O)c1ccccc1CSc1nc2ccccc2s1
 : ·	5%[15.4 µM]	13	0.2	-10%	?	-2

Values run as follows: ClpP mod	gsp agonist	TRPV1 potentiator	Menin MLL FP FL	gsp antag	Sfp PPTase inh	TRPML1 blocker
- O=C(COC(=O)c1n[nH]c2ccccc12)Nc1ccccc1
 : ·	-5%[15.4 µM]	-26	-3.7	·	20%	23
- CSCCC(NC(=O)COc1ccccc1)C(=O)Nc1ccc(C)cc1 (stereo not drawn)
 : -1.7%	-2%[15.4 µM]	14	5.1	20%	0%	-9
- CC(=O)Nc1ccc(N2CCN(c3ccc(C(F)(F)F)cn3)CC2)nc1
 : ·	-22%	-3	0.8	6%	11%	-5
- COC(=O)[C@@]1(Cc2ccc(OC)cc2)[C@H]2c3cc(C(=O)N4CCCC4)n(Cc4c(CO)[nH]cc(C)c4=O)c3C[C@H]2CN1C(=O)c1ccccc1
 : -5.7%	·	·	-1.8	-19%	9%	-2
- CCC1CCCCN1CC(=O)Nc1cc(C)nn1-c1nc(C)cc(C)n1 (stereo not drawn)
 : -1.6%	-45%[inhibitor]	2	2.6	-7%	-8%	13
- Cc1ccc(OC(=O)c2oc3ccc(F)cc3c2C)c(C)c1
 : 0.7%	-18%	2	0.5	-1%	-25%	-13
- COc1ccc(CCNC(=O)C2CCN(C(=O)c3cccc(Cl)c3)CC2)cc1OC
 : 0.5%	2%	2	2.9	-12%	12%	5
- COc1cc(N)c(Cl)cc1C(=O)OCC(=O)NCC1CCCO1 (stereo not drawn)
 : -8.2%	-2%[15.4 µM]	·	·	-3%	·	8
- Nc1n[nH]c(C2CC2)c1N=Nc1ccc(Cl)c(Cl)c1
 : ·	-1%[15.4 µM]	-9	3.1	3%	-8%	17
- O=C(NCc1ccc(Cl)cc1)C1CCC(CNc2c(N3CCCC3)c(=O)c2=O)CC1 (stereo not drawn)
 : ·	-10%[15.4 µM]	10	-1.7	-1%	13%	-12
- O=C(NCCCN1CCCC1=O)[C@H](CSCc1ccccc1)N1Cc2ccccc2C1=O
 : -0.1%	?	5	-0.3	1%	8%	-9
- CS(=O)(=O)c1sc2nc(-c3cccs3)cc(-c3ccccc3)c2c1N
 : ?	26%	7	-2.1	-1%	10µM*	5
- COc1ccc2oc(=O)c(/C(C)=N/Nc3nc(-c4cc(C)ccc4C)cs3)cc2c1
 : -1.6%	15%	-1	14	-8%	-13%	36
- CC1CCCN(CCCNC(=O)CN2C(=O)COc3ccc(S(=O)(=O)N4CCOCC4)cc32)C1 (stereo not drawn)
 : -2.0%	-45%[inhibitor]	5	·	2%	13%	14
- O=C(c1ccc(Cl)cc1)n1cnc2ccccc21
 : 0.0%	?	5	0.9	-7%	20%	3
- Cc1ccc(OCc2nnc(SCC(=O)N3CCc4ccccc43)n2C)cc1
 : 0.6%	-20%	·	·	-7%	·	-11
- COc1ccc(/C=C(\NC(=O)c2cccs2)C(=O)NC(C)(C)C)cc1OC
 : -3.8%	-6%	1	-2.2	1%	12%	40
- CC(CNC(=O)C(C)(C)C)NC(=O)C(C)(C)C (stereo not drawn)
 : 1.6%	-8%	0	4.3	14%	1%	10
- Cc1ccc(S(=O)(=O)N(C)C)cc1[N+](=O)[O-]
 : ·	-7%[15.4 µM]	-3	3.6	5%	10%	3
- CCN1CCN(C(=O)N2CCOCC2)CC1
 : ·	-9%[15.4 µM]	6	0.2	-7%	4%	-30
- Cc1cccc(NC(=O)c2nc[nH]c2C(=O)NCCCCCCNC(=O)c2[nH]cnc2C(=O)Nc2cccc(C)c2)c1
 : -0.7%	3%	4	·	8%	·	-4
- COc1ccc(OC)c(CCNC(=O)c2ccc3c(=O)[nH]c4c(C(=O)NC(C)C)sc(=S)n4c3c2)c1
 : -0.5%	-12%	-1	·	?	?	5

Assay outcomes (PubChem BioAssay)
